AID923: qHTS Assay for Allosteric/Competitive Inhibitors of Caspase-1: Spectroscopic Profiling in AFC Spectral Region. compound fluorescence, AFC spectral region (405/520 nm); almost no hit is shown here. AID 923, 2007. Potency, µM (series often up to 57.5 µM), for inactives: at the highest dose fluorescence increase, hits mostly activators. actives 1.1% (n = 75,000); active = well fitted activation curve with a large enough effect; inconclusive = small, poorly fitted or top-dose-only effect;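 also: potency is read from the fitted curve at half-maximal effect; 0% is about no effect; scaled to a free AFC standard on each plate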
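Compound autofluorescence profiled at 405 nm ex/520 nm em during kinetic caspase 1 run (50 nM enzyme, 5 uM Ac-WEHD-AFC, HEPES pH 7.5, 10 mM DTT). Titration up to 57 uM; baseline from regression intercept, normalized to AFC standard curve.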
A647 fluor: qHTS Assay for Spectroscopic Profiling in A647 Spectral Region; Compound fluorescence, A647 channel (570/671 nm), Tris buffer; max dye-equivalent concentration, M; 59,000 tested, under 10 active; AID 592, 2007; active means above 1 µM dye equivalent; inconclusive means 0.1 to 1 µM; inactive means 0.1 µM or less;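 also: values scaled relative to a standard on each plate; highest value over a series up to 38 µM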
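Buffer was dispensed, compounds and Alexa 647 standards were pin-transferred, and plates sat 15 min at room temperature. Intensity at 570/671 nm was then converted to dye-equivalent concentration using the plate's A647 standard curve.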
A488 fluor: qHTS Assay for Spectroscopic Profiling in A488 Spectral Region | compound autofluorescence, A488 spectral region, dye equivalency; active compounds read high | actives 0.1% (n = 59,000) | AID 591, 2007 | max dye equivalency, M; active = above 10 nM dye equivalent; inconclusive = 1 to 10 nM; inactive = 1 nM or less; about half of its hits are not listed in these tables;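 also: highest value over a series up to 38 µM; compound alone in buffer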
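Read-out: relative fluorescence at 480/540 nm, expressed as Alexa 488 dye-equivalent concentration from a six-point A488 standard included per plate. Conditions: 100 mM Tris, pH 8.0; 15 min incubation, room temperature.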
Resorufin fluor: qHTS Assay for Spectroscopic Profiling in Resorufin Spectral Region; Compound fluorescence, resorufin region 547/598 nm, buffer; active compounds read high; max dye-equivalent concentration, M; actives 0.04% (n = 59,000); AID 588, 2007; active = above 10 nM dye equivalent; inconclusive = 1 to 10 nM; inactive = 1 nM or less; a few of its hits are not listed in these tables; also: highest value over a series up to 38 µM
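Dye-equivalent concentration values derive from comparing each well's 547/598 nm fluorescence against resorufin standards included on every plate. Incubation was 15 min at room temperature in 100 mM Tris, pH 8.0.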
TSHR agonist: qHTS Assay for Agonists of the Thyroid Stimulating Hormone Receptor. Thyrotropin receptor (Homo sapiens), P16473. HEK293-CNG-TSHR cells (CNG channel as cAMP sensor), membrane potential dye, cAMP. Potency, µM (highest dose often 57.1 µM), for inactives: at the highest dose activation, actives largely listed as activators. actives 0.48% (n = 73,000). AID 926, 2007; active = well fitted activation curve of enough size with the parental cells flat; inconclusive = any curve in the parental cells; inactive = parental cells flat and receptor cells flat or falling; also: potency is read from the fitted curve at half-maximal effect; % of control where 0% means no effect; weak receptor curves with flat parental cells got no call and are not listed
Target sequence (P16473 whole entry, looked up): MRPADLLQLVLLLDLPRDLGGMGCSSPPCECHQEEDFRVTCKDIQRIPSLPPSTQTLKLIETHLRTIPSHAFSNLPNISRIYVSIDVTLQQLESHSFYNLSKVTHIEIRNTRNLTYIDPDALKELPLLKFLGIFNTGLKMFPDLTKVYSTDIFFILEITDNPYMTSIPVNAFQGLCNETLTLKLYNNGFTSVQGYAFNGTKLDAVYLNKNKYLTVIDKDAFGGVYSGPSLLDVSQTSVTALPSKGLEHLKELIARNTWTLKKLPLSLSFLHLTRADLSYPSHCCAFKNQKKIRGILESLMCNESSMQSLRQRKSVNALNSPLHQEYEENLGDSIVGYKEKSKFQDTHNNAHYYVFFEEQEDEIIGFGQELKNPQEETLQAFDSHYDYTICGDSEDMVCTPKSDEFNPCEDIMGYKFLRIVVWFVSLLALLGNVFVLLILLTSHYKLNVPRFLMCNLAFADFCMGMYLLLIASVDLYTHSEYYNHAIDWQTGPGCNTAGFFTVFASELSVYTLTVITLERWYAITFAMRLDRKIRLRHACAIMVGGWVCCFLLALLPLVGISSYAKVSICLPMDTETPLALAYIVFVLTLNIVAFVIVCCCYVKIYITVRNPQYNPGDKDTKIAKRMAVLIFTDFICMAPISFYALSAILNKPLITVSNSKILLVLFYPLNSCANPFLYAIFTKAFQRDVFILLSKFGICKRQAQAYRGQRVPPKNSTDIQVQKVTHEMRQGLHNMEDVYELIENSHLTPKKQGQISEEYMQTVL
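cAMP rise detected as CNG-channel membrane depolarization by fluorescent dye (emission 590 nm), 30 min after compound, following 60 min dye loading containing 100 uM RO 20-1724 at room temperature. Cells: TSHR/CNG HEK 293, with parental CNG HEK 293 as control.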
* = called active by the depositor; i = inactive; ? = inconclusive; . = not tested or not shown; & = joins results of further samples; [ ] = another dose, or the depositor's remark. A portion of the library; count on the stated rates, not on these rows.

SMILES	AID923	A647 fluor	A488 fluor	Resorufin fluor	TSHR agonist
CC(NC(=O)c1cn(C)c2ccc(S(=O)(=O)N3CCCC3)cc2c1=O)c1ccc2c(c1)OCCO2 (stereo not drawn)	0.5%	1e-09	i	i	?
COc1cc(NC(=O)c2ccc(COCC(F)(F)F)o2)cc(OC)c1OC	-0.8%	1.1e-09	i	i	13%
COc1cccc(N2CCN(CC(=O)Nc3nnc(-c4ccccc4)s3)CC2)c1	-0.8%	6.7e-09	i	i	?
COc1ccc(N(CC(O)Cn2nnc3ccccc32)S(=O)(=O)c2ccc(C)cc2)cc1 (stereo not drawn)	1.9%	3.7e-08	i	i	19%
CCOc1ccc(OCC)c(NC(=O)C2CCCN2S(=O)(=O)c2cccc3cccnc23)c1 (stereo not drawn)	-0.1%	.	.	.	?
CCOc1ccccc1-n1nnnc1SCC(=O)Nc1cc(C)on1	-0.2%	2.7e-08	i	i	2%
Cc1cc2nsnc2c(S(=O)(=O)NCC(=O)O)c1C	1.2%	.	.	.	-5%
CCCc1cc(=O)[nH]c(SCC(=O)NC(=O)c2ccccc2)n1	-1.5%	7e-09	i	i	3%
Cn1cccc1C(=O)N1CCC2(CC1)CCN(c1cccc(-c3ccccc3)c1)CC2	2.0%	1.6e-09	i	i	1%
COc1cccc(-c2nnc3sc(-c4ccco4)nn23)c1	.	1.1e-08	i	i	.
CCCCC(C=O)NC(=O)C(CC(C)C)NC(=O)OCc1ccccc1 (stereo not drawn)	-3.3%	.	.	.	18%
Cc1ccccc1S(=O)(=O)Cc1ccc(C(=O)NCCCOC(C)C)o1	-5.0%	1e-09	i	i	12%
O=C(NC1CCCCC1)C(c1ccco1)N(Cc1cccnc1)C(=O)C1COc2ccccc2O1 (stereo not drawn)	1.9%	3.2e-08	i	i	?
COc1cc2c(cc1NC(=O)COC(=O)Cn1cnc3ccccc31)oc1ccccc12	-0.3%	1e-09	i	i	-7%
CC(=O)c1c(N2CCOCC2)nc(=S)n(-c2cc(C)ccc2C)c1C	-1.8%	4.9e-09	i	i	5%
C=CCN(CC=C)C(=O)Nc1cc(Cl)ccc1OC	-1.0%	1.7e-09	i	i	21%
COC(=O)C(NC(C)=O)(Nc1ccccc1)C(=O)OC	.	4e-08	i	i	.
COCCN(CCOC)C(=O)c1ccc(Cc2nc3ccccc3[nH]2)cc1	-2.9%	.	.	.	1%
COC(=O)c1c(NC(=O)c2ccc(S(=O)(=O)N3CCOCC3)cc2)sc2c1CCN(C)C2	1.4%	9.4e-09	i	i	-7%
Cc1c(=O)n(OCc2ccccc2)c2ccccc2[n+]1[O-]	-1.3%	.	.	.	1%[11.4 µM]
COc1ccc(-c2nnc(SCC(=O)Nc3ccc(Cl)cc3)n2C)cc1	0.7%	1e-09	i	i	0%
CCCS(=O)(=O)N1CCCC(C(=O)NCc2ccc3c(c2)OCO3)C1 (stereo not drawn)	-0.1%	4.2e-09	i	i	-1%
COCCNC(=O)Cn1nc(C(F)(F)F)c(Cl)c1C	-0.1%	2e-08	i	i	-2%
CCCCN(C)CCCNC(=O)C1CC(=O)N(Cc2ccc(OC)cc2)C1 (stereo not drawn)	0.0%	4.4e-08	i	i	-1%[11.4 µM]
CCOC(=O)C1=C(C)NC(=O)C(C#N)C1c1ccncc1 (stereo not drawn)	-0.1%	3.7e-08	i	i	15%
COC(=O)c1ccccc1N1C(=O)C2C(C1=O)C1C=CC2C12CC2 (stereo not drawn)	-0.3%	1e-09	i	i	-4%
c1cncc(-c2cc(-n3ccnc3)ncn2)c1	4.3%	1.6e-09	i	i	.
O=C(O)C1C2C=CC(C2)C1C(=O)NCCc1ccccc1 (stereo not drawn)	1.3%	7e-09	i	i	-2%
CCOC(=O)CC1(CC(=O)OCC)NC(=O)c2c(C)sc(C(=O)OCC)c2N1	4.1%	1.4e-08	i	i	6%
Nc1nc2c(ncn2[C@H]2CC[C@@H](CO)O2)c(=O)n1C(=O)c1ccccc1	6.6%[11.5 µM]	1e-09	i	i	10%[11.4 µM]

Two of the compounds above, as labelled records:
CCCS(=O)(=O)N1CCCC(C(=O)NCc2ccc3c(c2)OCO3)C1 (stereo not drawn)
  AID923 = -0.1%
  A647 fluor = 4.2e-09
  A488 fluor = i
  Resorufin fluor = i
  TSHR agonist = -1%
COCCNC(=O)Cn1nc(C(F)(F)F)c(Cl)c1C
  AID923 = -0.1%
  A647 fluor = 2e-08
  A488 fluor = i
  Resorufin fluor = i
  TSHR agonist = -2%

Continued.
SMILES	AID923	A647 fluor	A488 fluor	Resorufin fluor	TSHR agonist
COc1ccc(-n2c(=O)cnc3cnc(N4CCOCC4)nc32)cc1	6.9%	1e-09	i	i	2%
COC(=O)CN(n1cnnc1)S(=O)(=O)c1ccccc1	-0.1%	.	.	.	4%
Cc1c(-c2ccccc2)sc(N)c1C(=O)N1CCOCC1	14%	1e-09	i	i	-3%
CCOC(=O)N1CCC(Nc2ncnc3c2cnn3-c2ccc(C)cc2C)CC1	-2.5%	.	.	.	?
C=CCC(NCc1ccccc1)c1ccco1 (stereo not drawn)	-0.7%	4.8e-09	i	i	?
CC(C)(C)c1c2c(c(C(C)(C)C)c3c1OCN(Cc1ccccc1)C3)OCN(Cc1ccccc1)C2	-2.4%[11.5 µM]	2e-08	i	i	7%[11.4 µM]
O=c1cc(-c2ccccc2)nc(N2CCN(Cc3ccc4c(c3)OCO4)CC2)[nH]1	0.8%	1.8e-08	i	i	-2%
CCCn1c(-c2ccc(F)cc2)nc2c(NC3CCN(Cc4ccccc4)CC3)nc(C)nc21	1.0%	.	.	.	?
O=C1C(=O)N(CCO)C(c2ccccc2)/C1=C(\O)c1ccccc1 (stereo not drawn)	-3.1%	.	.	.	-2%
Cc1ccccc1NC(=O)C1CCN(c2cnccn2)CC1	1.5%	4.1e-08	i	i	1%
COC(=O)c1ccccc1NC(=O)C1CC(=O)N(C2CCCCC2)C1 (stereo not drawn)	-1.0%	4.5e-09	i	i	13%
O=C1CC(c2ccncc2)c2cc3c(cc2N1)OCCO3 (stereo not drawn)	0.1%	7.8e-08	i	i	-2%
CC(=O)OC[C@@H]1O[C@@H](O/N=C2/C[C@@H](O)[C@@H](O)[C@@H]3[C@@H]4C(=O)N(C5CCCCC5)C(=O)[C@H]4CC[C@H]23)[C@H](OC(C)=O)[C@H](OC(C)=O)[C@@H]1OC(C)=O	-2.0%[11.5 µM]	.	.	.	-14%[11.4 µM]
COCc1cc(=O)n2[nH]c(-c3cccc(Br)c3)cc2n1	10%	.	.	.	-15%
CNc1nc(SCC(=O)OC)nc(N2CCOCC2)n1	1.0%	1.2e-08	i	i	?
Cn1c(SCCOc2ccccc2Cl)nnc1-c1ccncc1	-1.3%	3.9e-08	i	i	13%
CC(C)CNS(=O)(=O)c1ccc(S(=O)(=O)N2CCCN(Cc3ccccc3)C2)cc1	1.6%	4.9e-09	i	i	15%
CCOc1ccc(NC(=O)N2CCC(n3c(=O)[nH]c4ccccc43)CC2)cc1	-1.3%	.	.	.	1%
CC(C)CC1(C(=O)O)C=CCN1C(=O)c1ccccc1 (stereo not drawn)	-0.1%	.	.	.	2%
CCOc1c(S(=O)(=O)N2CCCC2)ccc(Cl)c1Cl	-1.5%	3.7e-08	i	i	11%
C=C(C)CC1(c2ccccc2)Oc2ccccc2-c2nc3cc(Cl)c(Cl)cc3nc21 (stereo not drawn)	1.6%[11.5 µM]	.	.	.	-4%[11.4 µM]
Cc1ccc(S(=O)(=O)CCc2ccccn2)cc1	-1.6%	1.9e-08	i	i	-2%
CC(=O)N1c2c(cc(Br)cc2S(=O)(=O)NCc2ccc3c(c2)OCO3)CC1C (stereo not drawn)	0.2%	7.1e-09	i	i	.
Cc1cc(C(F)F)n2ncc(C(=O)N3CCc4ccccc4C3)c2n1	-0.9%	5.6e-09	i	i	0%
CSc1n[nH]c(NC2=CC(=O)CCC2)n1	-0.2%	1.7e-08	i	i	5%
O=C(NCCc1ccccc1)C1CCCN(S(=O)(=O)c2cccc3nonc23)C1 (stereo not drawn)	1.7%	4.3e-08	i	i	2%[11.4 µM]
COc1cccc(-c2nnc(SCCC(=O)O)n2C)c1	-0.1%	1e-09	i	i	1%
FC(F)(F)c1cc(-c2ccco2)nc(NCc2ccco2)n1	4.9%	3.1e-08	i	i	?
Cn1cnnc1SCC(=O)Nc1sc2c(c1C(N)=O)CCC2	3.3%	1e-09	i	i	2%[11.4 µM]
Cc1ccc(-n2ncc3c(NCCCN4CCCC4=O)ncnc32)c(C)c1	.	3.4e-08	i	i	.
Cc1ccc(-n2c(=O)[nH]c3c(C(N)=O)nc(-c4ccc(C)o4)nc32)cc1	8.7%	3e-09	i	i	15%[11.4 µM]
COC(=O)CCCCCN1C(=O)NC(c2ccc(-c3ccccc3)cc2)C(C(=O)OCc2ccccc2)=C1C (stereo not drawn)	-2.4%	.	.	.	6%
CCOc1ccc(OCC)c(NC(=O)CN2CCN(c3cccc(C)c3C)CC2)c1	0.6%	3e-08	i	i	3%
CC1CCN(c2nc3c(c(=O)n(C)c(=O)n3C)n2CCSc2ncccn2)CC1	1.9%	.	.	.	?
COc1cc(CNC(=O)CCCC/C=C\C(C)C)ccc1O	-0.9%	6.6e-09&3.8e-08	i	i	17%
Cc1nnc(SCCn2c(N3CCCC(C)C3)nc3c2c(=O)[nH]c(=O)n3C)s1 (stereo not drawn)	0.5%	3.4e-09	i	i	1%
O=C(OCCN1C(=O)c2ccccc2C1=O)c1cc(S(=O)(=O)N2CCOCC2)ccc1F	-1.7%	2.2e-09	i	i	18%
CCCCC(=O)Nc1nnn(CCC)n1	1.6%	1.4e-08	i	i	1%
CCC(OC(=O)c1cc2sccc2n1C)C(=O)NCc1ccco1 (stereo not drawn)	0.4%	1.6e-08	i	i	?
O=c1c(-c2ccc(F)cc2)nc2cncnc2n1-c1ccccc1	8.4%	1e-09	i	i	2%
CN(C)C(=O)COc1ccc2cc(-c3ccccc3)c(=O)oc2c1	1.9%	2.1e-08	i	i	0%
COc1ccc(OCC(=O)Nc2ccc(C)cc2)cc1	1.0%	1e-09	i	i	4%
O=C(CSc1nccn1-c1ccccc1)N1CCc2ccccc21	-0.2%	1e-08	i	i	.
Cc1ccccc1-c1nnc(SCc2ccccc2F)o1	0.2%	4.4e-09	i	i	?
CCCOC(=O)c1c(N)sc2c1CCC2	0.3%	.	.	.	-19%

In the list so far, these have a CF3 group:
SMILES	AID923	A647 fluor	A488 fluor	Resorufin fluor	TSHR agonist
COc1cc(NC(=O)c2ccc(COCC(F)(F)F)o2)cc(OC)c1OC	-0.8%	1.1e-09	i	i	13%
COCCNC(=O)Cn1nc(C(F)(F)F)c(Cl)c1C	-0.1%	2e-08	i	i	-2%
FC(F)(F)c1cc(-c2ccco2)nc(NCc2ccco2)n1	4.9%	3.1e-08	i	i	?

(continued)
SMILES	AID923	A647 fluor	A488 fluor	Resorufin fluor	TSHR agonist
O=S(=O)(Cc1ccccc1)N1CCC(c2nc(-c3cccs3)no2)CC1	7.5%	1e-09	i	i	.
COc1cc(Cl)ccc1NC(=O)COc1ccccc1C(=O)N1CCN(c2ccc(O)cc2)CC1	-1.5%	1.6e-09	i	i	-1%
O=C(Cc1cn2ccsc2n1)OCc1nc2ccccc2s1	-2.4%	3.2e-08	i	i	?
Cc1ccc2cc(CN(Cc3cccs3)C(=O)c3ccco3)c3nnnn3c2c1C	4.5%	1.6e-08	i	i	?
COC(=O)C(C(=O)NCC1CCCO1)C1CCCCCC1 (stereo not drawn)	0.1%	8.3e-09	i	i	15%
N=c1c2c(-c3ccccc3)c(-c3ccccc3)oc2ncn1CCCN1CCOCC1	0.8%	1.8e-08	i	i	?

Compound activity from PubChem BioAssay.
